# Assay outcomes deposited in PubChem by National Center for Advancing Translational Sciences (NCATS).
# VDR inhibitor = Inhibitors of the vitamin D receptor (VDR): qHTS. Vitamin D3 receptor (Homo sapiens), P11473. Potency, µM, for the others: max response, negative = inhibition, hits mostly inhibitors. 0.93% of 400,000 active. VDR-SRC2-3 peptide fluorescence polarization, 2 h. AID 504847, 2011; active = well fitted inhibition curve with a large enough effect; inconclusive = small, poorly fitted or top-dose-only effect, or another doubt; inactive = no such curve, though single readings can be large or run the other way; note: series mostly up to about 120 µM
# Target sequence (P11473 whole entry, looked up): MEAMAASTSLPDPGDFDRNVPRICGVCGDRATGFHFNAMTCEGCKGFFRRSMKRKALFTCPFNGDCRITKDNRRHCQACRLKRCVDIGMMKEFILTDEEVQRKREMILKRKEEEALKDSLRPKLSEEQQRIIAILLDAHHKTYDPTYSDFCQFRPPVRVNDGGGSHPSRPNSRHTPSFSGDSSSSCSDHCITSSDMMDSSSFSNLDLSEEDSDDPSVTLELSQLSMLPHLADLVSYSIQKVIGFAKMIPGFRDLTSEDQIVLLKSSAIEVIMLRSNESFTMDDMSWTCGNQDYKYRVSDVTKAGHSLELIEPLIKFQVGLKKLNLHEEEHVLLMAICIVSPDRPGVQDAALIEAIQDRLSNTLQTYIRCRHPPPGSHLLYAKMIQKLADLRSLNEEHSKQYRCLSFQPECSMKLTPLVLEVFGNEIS
#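 After 23 nl compound addition and a short centrifugation, plates sat for 2 hours at ambient temperature; polarization of fluorescence then indicated loss of VDR binding to peptide SRC2-3.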
# * hit, by the source's call; ? = inconclusive; & = joins results of further samples. % is set by controls: 0 for no effect and ±100 for the full control effect; potency is the fitted concentration of half-maximal effect. The list is partial (hit frequency here may not be typical).
smiles,VDR inhibitor
NS(=O)(=O)c1cccc(NC(=O)CSc2nc3ccccc3c(=O)n2Cc2ccco2)c1,-7.9%
CCCCn1c(NS(=O)(=O)c2ccc(C)cc2)c(S(=O)(=O)c2ccccc2)c2nc3ccccc3nc21,?
COc1ccc(CCNC(=O)Nc2ccc3c(c2)OCO3)cc1OC,6.7%
Cc1cccc(-c2c(NC(=O)c3ccco3)oc3c(C)cccc3c2=O)c1,-12.8%
COc1cccc(N=Nc2c(N)[nH][nH]c2=O)c1,-15.4%
CCOc1cc(NC(=O)C2CC2)c(OCC)cc1NC(=O)c1cccc(F)c1,-18.2%
OC(COc1ccc(Cl)cc1)CN1C2=NCCCN2c2ccccc21 (stereo not drawn),-3.1%
Cn1ccsc1=NC(=O)c1ccc(Cl)c([N+](=O)[O-])c1,10.2%
COC(=O)c1ccccc1NC(=O)c1ccc2c(c1)CCN2S(=O)(=O)c1ccc(Cl)cc1,12.1%
CNc1ccc(/C=C(\CCC(=O)O)c2nc3ccccc3s2)cc1[N+](=O)[O-],-1.3%
COc1ccc(-n2c(-c3ccccc3)c[n+]3c2CCC3)cc1,-4.9%
O=C1CCC(=O)N1c1cccc(OS(=O)(=O)c2ccccc2)c1,6.2%
O=C(Cn1nnc2ccccc21)NCc1ccccc1,9.3%
CCc1sc(Nc2ccc(C)cc2Br)nc1-c1cc2cccc(OC)c2oc1=O,-10.5%
CCC1CN(C(=O)N2CCC(C(=O)NCCN(C)C)CC2)c2ccccc2O1 (stereo not drawn),7.2%
CC(=O)NC1CC2CCCC(C1)N2C(=O)Nc1cccc(Cl)c1 (stereo not drawn),-14.6%
CCOc1ccccc1NC(=O)C(OC(=O)C1CC1)c1ccccc1 (stereo not drawn),1.1%
Cc1cccc(OCCNC(=O)c2cccc(Oc3ccc(C(F)(F)F)cc3[N+](=O)[O-])c2)c1,-1.1%
CC1(C)CC(=O)c2c(nn(-c3ccccc3)c2-c2ccncc2)C1,11.5%
CS(=O)(=O)N1CCN=C1SCc1ccc([N+](=O)[O-])cc1,-17.3%
CCOC(=O)c1nn(-c2ccc(C)cc2)cc1O,-2.3%
Cc1cccc(N2CCCC2=Nc2ccc(Br)cc2C#N)c1,13.3%
Cc1ccc(Nc2nc(N)nc(COC(=O)C3=COCCO3)n2)cc1,21.3%
CCOC(=O)C1CCCN(C(=O)c2cc3c(=O)n(C)c4ccccc4c3n2C)C1 (stereo not drawn),1.8%
O=C(COC(=O)Cc1ccsc1)Nc1ccc(Br)cc1,6.4%
CCOC(=O)CN(C(=O)CNC(=O)c1cccs1)C(C(=O)NC1CCCC1)c1cccnc1 (stereo not drawn),?
CCOc1ccc(Nc2c(S(=O)(=O)c3ccc(C)cc3)cnc3ccc(OC)cc23)cc1,9.5%
COc1ccc(OC)c2sc(N3CCN(C(=O)CCS(=O)(=O)c4ccc(F)cc4)CC3)nc12,1.8%
Fc1cccc(-n2cc(-c3ccccc3)c3c(=S)nc[nH]c32)c1,-6.4%
C=C1CCN([C@@H](C)C(=O)NCc2ccc(OC)cc2)S(=O)(=O)c2ccccc21,-4.9%

# Next part, starting with the last 4 of the part before.
smiles,VDR inhibitor
CCOc1ccc(Nc2c(S(=O)(=O)c3ccc(C)cc3)cnc3ccc(OC)cc23)cc1,9.5%
COc1ccc(OC)c2sc(N3CCN(C(=O)CCS(=O)(=O)c4ccc(F)cc4)CC3)nc12,1.8%
Fc1cccc(-n2cc(-c3ccccc3)c3c(=S)nc[nH]c32)c1,-6.4%
C=C1CCN([C@@H](C)C(=O)NCc2ccc(OC)cc2)S(=O)(=O)c2ccccc21,-4.9%
N#Cc1ccc(CN2CCN(C(=O)c3ccc(S(=O)(=O)N4CCCCCC4)cc3)CC2)cc1,-18.6%
COc1ccc(NS(=O)(=O)c2ccc3[nH]c4c(c3c2)CCCCCC4)cc1,4.5%
COC(=O)c1ccccc1S(=O)(=O)N1CCC(C(=O)Nc2ccc(N3CCOCC3)cc2)CC1,-8.9%
CC(C)C[C@@H](CC(=O)N[C@H](CC(=O)N[C@@H]1CCNC[C@H]1C(=O)N[C@H](CC(=O)N[C@@H](CCC(=O)O)CC(=O)O)CC(C)C)C(C)C)NC(=O)[C@@H]1CNCC[C@H]1N,6.5%
COC(=O)c1sccc1N/N=C/c1cccc(OC)c1O,-9.8%
COc1ccc(NC(=O)C(CCSC)N2C(=O)c3ccccc3C2=O)cc1 (stereo not drawn),-9.8%
COc1ccc(NC(=O)c2ccc3c(c2)N(C)CCS3)cc1,8.9%
O=C(/C=C/c1ccc(Cl)c(Cl)c1)N1CCc2ccccc21,7.3%
O=S(=O)(NC1CCCCC1N1CCC(O)CC1)c1ccccc1 (stereo not drawn),-14.3%
CC(C)(C)c1ccc(C(=O)NC(Cc2c[nH]c3ccccc23)C(=O)OCC(=O)c2ccccc2)cc1 (stereo not drawn),7.5%
Cc1ccc2c(c1)C(=O)N(CCCCO)C2=O,9.2%
Cc1oc(-c2ccccc2F)nc1CS(=O)(=O)CC(=O)NC(C)CCc1ccccc1 (stereo not drawn),-9.9%
CC(C)(C)OC(=O)C[C@@H]1C/C=C\C[C@H](CC(=O)N[C@H](CO)Cc2ccccc2)C(=O)N[C@@H](Cc2ccccc2)COC1=O,8.1%
COc1ccc(-c2csc3nc(-c4cccnc4)nc(Cl)c23)cc1OC,?
Cc1ccc(S(=O)(=O)NC(=O)NN2CC3CCCC3C2)cc1 (stereo not drawn),10.3%&3.8%&1.1%
CCN1CCN(c2ccc(S(=O)(=O)N3CCOCC3)cc2NC(=O)/C=C/c2cccc(OC)c2OC)CC1,-2.2%
COc1ccccc1NC(=O)NS(=O)(=O)c1ccc(C)cc1,24.7%
O=C(CC(NC(=O)c1ccccc1Cl)c1ccccc1)NCCc1ccc(Cl)cc1 (stereo not drawn),18.5%
COCCn1c(/C=C/c2ccccc2)nc2ccccc21,10.9%
O=C(NCCCNC(=O)c1ccccc1F)c1ccco1,13.0%
O=c1cc(-c2ccc(F)cc2F)[nH]c2ccccc12,5.3%
CCOc1cc2sc(N3CCC(C(=O)NCCCN4CCCC4=O)CC3)nc2cc1Br,0.6%
CC1(c2nnc(Cc3ccccc3)o2)CC(c2ccncc2)=NO1 (stereo not drawn),10.0%
c1ccc(-c2ccc(C3=Nn4c(nnc4-c4cccs4)SC3)cc2)cc1,-11.7%
O=C(NC(=S)Nc1nc2c(s1)CSc1ccccc1-2)c1ccccc1,-13.2%
CCOc1ccc(C(=O)N2CCN(Cc3ccccc3)CC2)cc1,-4.8%
CC(CCc1ccccc1)NC(=O)CN1CCSc2ccccc21 (stereo not drawn),-15.2%
CCc1cccc(-n2nnc(-c3nsc(NC(=O)c4cccs4)n3)c2C)c1,6.0%
Cc1nc(-c2ccc(S(=O)(=O)N3CCN(C4c5ccccc5-c5ccccc54)CC3)s2)cs1,-17.9%
Cc1cc2c(cc1C)-n1c(-c3ccccc3)c3c(=O)n(C)c(=O)n(C)c3c1C(c1ccco1)N2 (stereo not drawn),10.2%
C/C(N)=C(/C#N)C(=O)COC(=O)CNS(=O)(=O)c1c(F)cccc1F,-12.0%
Cc1ccc(S(=O)(=O)c2cc3ccc(O)cc3oc2=O)cc1C,3.4%
CN1CCN(S(=O)(=O)c2ccc(Cl)c(C(F)(F)F)c2)CC1,-3.8%
CCOc1ccc(NC(=O)CCCCn2c(=O)[nH]c3ccsc3c2=O)cc1,9.6%
CC1CCN(C(=O)CS(=O)(=O)Cc2ccccc2)CC1,-8.4%
COc1ccccc1-c1cc(C(=O)Nc2ccccc2C(F)(F)F)no1,-6.3%
Cn1c(SCC(=O)NNC(=O)Nc2ccc(Cl)cc2)nnc1-c1ccccc1,-13.3%
O=C(Nc1ccc(F)cc1)C1CC(=O)n2c(nc3ccccc32)N1 (stereo not drawn),-18.8%
COc1ccc(-n2c(CCC(=O)O)ccc2-c2ccc(F)cc2)c(OC)c1,3.9%
O=P1(NC2CCCC2)OCC2(CO1)COP(=O)(NC1CCCC1)OC2 (stereo not drawn),-3.9%
Cc1ccc(-c2onc(C)c2C)cc1S(=O)(=O)N1CCC(C)CC1,-6.3%
O=C(C1CCN(S(=O)(=O)c2ccc(Cl)cc2)CC1)N1CCCCCCC1,-8.3%
O=C(NCC1(N2CCOCC2)CCCCC1)c1cccc(S(=O)(=O)N2CCc3ccccc3C2)c1,-5.5%
CCN(C(=O)COC(=O)Cc1ccc(F)cc1)c1c(N)n(Cc2ccccc2)c(=O)[nH]c1=O,-13.7%
Cc1ccc(-c2nc(C(=O)NCCCN(C)C)cc3c2[nH]c2ccccc23)cc1,-7.9%
COCCN(C(=O)c1cccc(N2C(=O)CCC2=O)c1)c1nc(-c2ccc([N+](=O)[O-])cc2)cs1,-9.5%
Cc1nc(S(=O)(=O)c2ccc(Br)cc2)nc2c1CCC2,-8.7%
COc1cccc(C2CC(c3cccs3)=NN2C(=O)c2ccco2)c1O (stereo not drawn),-20.3%
C=CC(=O)NC(NC(=O)C=C)c1ccc(Br)cc1,-6.3%
CCN1CC(CN(C)Cc2cn(-c3ccc(C)cc3)nc2-c2ccc(F)cc2)CC1=O (stereo not drawn),-7.4%
Cn1cc(-c2cc3n(n2)CCC(=O)N3CCCC(=O)NCc2ccccc2)c2ccccc21,4.8%
COC(=O)c1cc(S(=O)(=O)NCC2CCN(Cc3ccc(C)cc3)CC2)c[nH]1,3.2%&2.0%
S=c1[nH]ccn1-c1ccccc1Cl,-5.6%
Cc1ccc(/C=N/NC(=O)c2ccc(N(C)S(=O)(=O)c3ccccc3)cc2)cc1,8.5%
O=C(CC12CC3CC(CC(C3)C1)C2)NCc1ccccc1,-18.7%
COc1cc(-c2nc(Cc3ccccc3Cl)no2)cc(OC)c1OC,-17.2%
C=CCn1c(SCC(=O)NC(=O)NCCC)nnc1C1CCCCC1,-4.2%
Cc1sc(NC(=O)c2ccco2)c(C(=O)c2ccc(Cl)cc2)c1C,-21.9%
Fc1ccccc1OCCCN1CCOCC1,4.2%
CCN(CC)S(=O)(=O)c1nnc(NC(=O)COc2ccccc2F)s1,-2.9%

# Next section:
smiles,VDR inhibitor
COc1cc(CNc2ccc3[nH]c(=O)[nH]c3c2)ccc1OCc1ccc(F)cc1Cl,-11.3%&14.8%
COCCSc1ccccc1C(=O)Nc1nnc(COC)s1,1.2%
CN(c1ccccc1)S(=O)(=O)c1cccc(NC(=O)CN2CCCc3ccccc32)c1,3.8%
Cc1cccc(N2CC(C(=O)NCC3COc4ccccc4O3)CC2=O)c1C (stereo not drawn),9.9%
O=C1CCC(=O)N1c1ccc(-c2nc3sc4c(c3c(=O)o2)CCC4)cc1,11.1%
Cc1ccccc1-c1cc2c(nn1)-c1ccccc1C2=O,4.0%
CCn1c(COc2ccccc2)nnc1SCC(=O)NC1CCCCC1,13.5%
C=CCn1c(COc2ccccc2OC)nc2ccccc21,13.2%
Cc1ccc(C)c(S(=O)(=O)N/N=C2/CCCc3ccccc32)c1,-15.2%
O=C(OC1CCCCC1=O)c1cccc(S(=O)(=O)N2CCOCC2)c1 (stereo not drawn),0.3%
CC(=O)NCCOC(=O)Nc1ccncc1,-14.5%
COC(=O)Cn1cnc2c(C#N)c3n(c2c1=O)CCCCC3,-4.8%
Cc1sc2nc(COC(=O)c3ccc(Cl)c(N)c3)[nH]c(=O)c2c1C,11.7%
Cc1cccc(NC(=S)N2CCC(c3nc4ccccc4o3)CC2)c1C,9.3%
CCOC(=O)c1sc(NC(=O)CSc2nccc(C)n2)nc1C,8.3%
O=C(Nc1ccccc1N1CCOCC1)c1cc(-c2ccncc2)nc2ccccc12,-3.1%
COC(=O)c1ccc(OC(=O)c2ccc(OC)c(OC)c2)c(OC)c1,13.6%
CNC(=O)c1ccsc1NC(=O)CCS(=O)(=O)c1ccccc1,-5.0%
O=C(COC(=O)/C=C/c1nc2ccccc2s1)Nc1cccc(Cl)c1Cl,7.0%
Cc1cccc(N2CCN(C(=O)Cc3ccccc3[N+](=O)[O-])CC2)c1C,-15.7%
CC(=O)c1c(C)[nH]c(C(=O)Nc2cc(C)ccc2C)c1C,6.2%
Cc1ccc(NC(=O)C(CC(C)C)NC(N)=O)cc1Cl (stereo not drawn),-9.1%
O=C(Nc1ccc2c(c1)OCO2)C1CCN(C(=O)CSc2ncnc3ccccc23)CC1,24.3%
c1ccc2oc(CCc3nc4ccccc4o3)nc2c1,4.2%
COC(=O)[C@@H]1C[C@@]2(O)[C@H](O)[C@H](O)[C@H](O)C[C@H]2N1Cc1ccc(-c2ccccc2)cc1,-20.6%
Cc1ccc(NC(=O)CCc2c(C)nc3c(-c4ccccc4)c(C)nn3c2C)c(C)c1,-16.1%
CCOC(=O)COc1c(Br)cc(/C=C2\SC(=O)N(CC(=O)N3CCCC3)C2=O)cc1OC,?
N#CC1=C2SCN(Cc3ccco3)CN2C(=O)CC1c1cccc2ccccc12 (stereo not drawn),?
COc1ccc(Cl)cc1NC(=S)NCCc1ccc(S(N)(=O)=O)cc1,-4.6%
CCCN1C(=O)C(O)(CC(=O)c2ccc(OC)c(OC)c2)c2ccccc21 (stereo not drawn),-0.2%
Cc1nn(C(=O)CCC(=O)NCCc2ccccc2)c2ccccc12,-13.1%
CC(Nc1cc(C)cc(C)c1)=[N+](C)CCNS(=O)(=O)c1ccc(Cl)cc1,-4.1%
Cc1c(C(=O)OCC(=O)NCC2CCCO2)cccc1[N+](=O)[O-] (stereo not drawn),-7.4%
Cc1ccccc1-n1c(SCc2c(C)noc2C)nnc1-c1cccnc1,4.1%
